Source: PubChem
hNpr1 antagonist: Natriuretic polypeptide receptor (hNpr1) antagonism - Primary qHTS | HEK293 hNpr1 GloSensor cGMP, ANP-stimulated luminescence | Potency, µM (top dose mostly 46.3 µM), inactives show at the top dose activity change, negative = inhibition, hits mostly inhibitors | actives 1.6% (n = 76,000) | Atrial natriuretic peptide receptor 1 (Homo sapiens), P16066; active = well fitted inhibition curve with a large enough effect; inconclusive = small, poorly fitted or top-dose-only effect; inactive = no such curve, though single readings can be large or run the other way;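 also: nearly all actives have a fitted effect of over 60% in size; nearly all hits also lower the signal before the agonist is added; a reference antagonist and vehicle were the controls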
Target sequence (P16066 whole entry, looked up): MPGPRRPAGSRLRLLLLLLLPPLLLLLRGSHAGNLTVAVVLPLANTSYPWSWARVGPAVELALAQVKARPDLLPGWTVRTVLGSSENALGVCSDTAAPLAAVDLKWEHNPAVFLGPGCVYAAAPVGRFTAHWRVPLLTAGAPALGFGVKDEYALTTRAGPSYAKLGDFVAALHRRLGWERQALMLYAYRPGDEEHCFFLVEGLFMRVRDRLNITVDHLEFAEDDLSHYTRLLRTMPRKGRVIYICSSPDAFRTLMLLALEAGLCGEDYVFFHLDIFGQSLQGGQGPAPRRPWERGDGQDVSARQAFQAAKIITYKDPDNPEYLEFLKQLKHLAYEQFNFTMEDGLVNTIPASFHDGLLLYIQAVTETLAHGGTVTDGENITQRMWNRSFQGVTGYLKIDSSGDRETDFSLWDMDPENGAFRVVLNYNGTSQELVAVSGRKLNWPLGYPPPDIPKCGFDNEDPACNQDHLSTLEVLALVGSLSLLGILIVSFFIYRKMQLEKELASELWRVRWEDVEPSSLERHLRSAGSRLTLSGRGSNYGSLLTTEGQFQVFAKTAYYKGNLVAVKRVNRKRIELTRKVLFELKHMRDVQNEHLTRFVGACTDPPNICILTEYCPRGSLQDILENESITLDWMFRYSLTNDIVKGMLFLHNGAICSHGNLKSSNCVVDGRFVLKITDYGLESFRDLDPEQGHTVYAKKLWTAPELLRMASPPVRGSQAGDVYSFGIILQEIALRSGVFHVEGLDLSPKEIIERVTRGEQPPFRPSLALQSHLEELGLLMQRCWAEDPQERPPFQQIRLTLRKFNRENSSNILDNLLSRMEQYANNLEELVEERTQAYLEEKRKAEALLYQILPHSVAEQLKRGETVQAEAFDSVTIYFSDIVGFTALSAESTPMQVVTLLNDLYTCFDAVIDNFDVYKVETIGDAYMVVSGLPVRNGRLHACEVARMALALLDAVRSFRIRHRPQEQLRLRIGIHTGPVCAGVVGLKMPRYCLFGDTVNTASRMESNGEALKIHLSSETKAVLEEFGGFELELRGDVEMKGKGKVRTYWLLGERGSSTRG
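Compound pre-incubated 30 min at room temperature on GloSensor-loaded HEK293 cells stably carrying hNpr1 and the pGS-40F cGMP biosensor. Stimulation uses hNppA at 0.1 nM final; luminescence is taken at baseline and 20 min post-agonist.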
An asterisk follows results filed as active; [ ] = dose if it differs, or a comment. % is scaled to controls: 0 for no effect and ±100 for the full control effect; potency is read from the fitted curve at half-maximal effect.

`O=C(NCCn1cccc1-c1nc(-c2ccc3c(c2)OCO3)no1)c1cccc(F)c1` gave hNpr1 antagonist -10.0%.
`COCC(=O)N1CC(C(=O)NCc2cccc(F)c2)CC(c2ccc(OC)c(OC)c2)C1` (configuration not stated) gave hNpr1 antagonist -3.1%.
`O=C1CN(Cc2cccc(Cl)c2)CCN1c1ccc(Cl)nn1` gave hNpr1 antagonist 12.0%[70.6 µM].
Screening CN1CCC(NC[C@H]2COCc3nc4cc(S(C)(=O)=O)ccc4n32)CC1 returned hNpr1 antagonist -1.4%[70.6 µM].
Screening O=C(NCc1nnc2c(-c3nc(C4CC4)no3)cccn12)C1CCCC1 returned hNpr1 antagonist -15.0%.
`O=C(CN1CCCc2nc(C3CC3)ncc2C1=O)NCCN1CCOCC1` gave hNpr1 antagonist -1.1%.
For O=C(CC(F)(F)F)NCCc1noc(-c2cccnc2)n1 the results were hNpr1 antagonist 7.4%.
COC(=O)[C@@H](C)NC(=O)[C@@H]1CN(C(=O)c2cccc(F)c2)CCN1C(C)=O was read as hNpr1 antagonist -1.2%[70.6 µM].
N#Cc1ccc(S(=O)(=O)N[C@H]2[C@H](O)[C@H](O)C[C@@H]2c2ccc(C(F)(F)F)cc2)cc1 was read as hNpr1 antagonist -14.1%[70.6 µM].
Screening CN(Cc1ccc(C2CCCCO2)s1)CC1CCN(CCc2ccc(F)cc2)CC1 (configuration not stated) returned hNpr1 antagonist -5.6%.
`Cc1cc(=O)n(CC(=O)Nc2ccc(C(F)(F)F)cc2)c(N2CCOCC2)n1` gave hNpr1 antagonist -1.2%.
COc1ccc2c(c1)c(CN1CCc3nn(C)c(=O)n3CC1)cn2C was read as hNpr1 antagonist -7.7%.
For COc1ccc2c(c1)c(CN1C[C@@H](CO)[C@H](c3nc(C)no3)C1)cn2C the results were hNpr1 antagonist -1.1%.
`COc1ccc(CC(=O)N2CCCN(c3cc(-c4ccccc4)[nH]n3)CC2)cc1` gave hNpr1 antagonist 0.0%.
`CCS(=O)(=O)N1CCC2(CC1)CC(N1CCN(C(C)=O)CC1)CCO2` (configuration not stated) gave hNpr1 antagonist -1.8%.
`CCOc1ccccc1NC(=O)N1CCCN(C(=O)C2CC2)C(c2ccccc2)CC(=O)NCC1` (configuration not stated) gave hNpr1 antagonist -0.8%.
O=C(Nc1ccc2c(c1)OCCO2)NC1CCN(C(=O)N2CC3CC(C2)[C@H]2CCCC(=O)N2C3)CC1 (some centres not stated) was read as hNpr1 antagonist 0.3%.
CCC(CC)NC(=O)C1CCCN(S(C)(=O)=O)CCC(=O)NCC1 (configuration not stated) was read as hNpr1 antagonist -2.0%.
`Cc1ccncc1C(=O)N1CCCN(S(=O)(=O)c2ccccc2)CCC(=O)NCC1` gave hNpr1 antagonist 4.7%.
For Cn1cnc(S(=O)(=O)N2CCC(N3C(=O)C4(CCCC4)C3c3ccccc3)CC2)c1 (configuration not stated) the results were hNpr1 antagonist 2.7%.

Brought forward from above: four compounds; new compounds follow.
O=C(Nc1ccc2c(c1)OCCO2)NC1CCN(C(=O)N2CC3CC(C2)[C@H]2CCCC(=O)N2C3)CC1 (some centres not stated) was read as hNpr1 antagonist 0.3%.
CCC(CC)NC(=O)C1CCCN(S(C)(=O)=O)CCC(=O)NCC1 (configuration not stated) was read as hNpr1 antagonist -2.0%.
`Cc1ccncc1C(=O)N1CCCN(S(=O)(=O)c2ccccc2)CCC(=O)NCC1` gave hNpr1 antagonist 4.7%.
For Cn1cnc(S(=O)(=O)N2CCC(N3C(=O)C4(CCCC4)C3c3ccccc3)CC2)c1 (configuration not stated) the results were hNpr1 antagonist 2.7%.
Screening Cc1cccc(CNC(=O)[C@@H]2COCC(=O)N2Cc2ccc(F)cc2)c1 returned hNpr1 antagonist -8.9%.
COc1cccc(C(=O)N2CCC3(CC2)OCC(C(=O)NC(C)C)N3C(=O)c2ccc(F)cc2)c1 (configuration not stated) was read as hNpr1 antagonist -0.1%.
For O=C(CN1CCC2(CC1)NC(=O)CC2C(=O)O)NCc1ccccn1 (configuration not stated) the results were hNpr1 antagonist 0.5%.
Cc1cc2c(cc1CNC1CC(C)(C)Cc3nc(C(C)(C)C)ncc31)OCO2 (configuration not stated) was read as hNpr1 antagonist -1.9%.
For O=C1CC(c2ccccc2)N(C(=O)CNC(=O)c2cnccn2)CCCCCN1 (configuration not stated) the results were hNpr1 antagonist 1.8%.
O=c1[nH]c(C2CCN(Cc3ccc(Cl)cc3)CC2)nc2ccc(F)cc12 was read as hNpr1 antagonist -19.3%.
Screening CCOCCCNC(=O)c1c(C)noc1-c1ccc(OC(F)(F)F)cc1 returned hNpr1 antagonist 4.6%.
For O=C(C1CCCC1)N1CCC(c2noc(COCC3CC3)n2)CC1 the results were hNpr1 antagonist -13.8%.
For CCN(Cc1nccn1C)C(=O)c1ccc(N2CCN3CCCC3C2)nc1 (configuration not stated) the results were hNpr1 antagonist 1.8%.
`COc1ccc(C(=O)N[C@H]2C[C@H]3C(=O)NC[C@@H](CCC(=O)NCc4cccnc4)N3C2)cc1` gave hNpr1 antagonist 5.9%.
CNCC(=O)N1CCc2ncnc(N3CCSCC3)c2CC1 was read as hNpr1 antagonist 14.5%.
For O=C(NCCn1cnc2ccccc21)C1CC(=O)N(c2n[nH]c3ccccc23)C1 (configuration not stated) the results were hNpr1 antagonist 1.7%.
Screening COC(=O)c1cc2n(n1)CCCN(S(=O)(=O)c1ccc(-c3ccno3)o1)C2 returned hNpr1 antagonist 4.1%.
For CCc1ccccc1-n1nc(-c2c(C)nc3scc(CC(=O)N4CCCC4)n3c2=O)cc1C the results were hNpr1 antagonist 4.3%.
Cc1cnc(C(=O)NC2C[C@H]3CC[C@@H](C2)N3C(=O)Cc2ccsc2)cn1 (some centres not stated) was read as hNpr1 antagonist 3.5%.
Screening CCOc1nccnc1NC1CCN(C(=O)c2cccn2C)CC1 returned hNpr1 antagonist 5.2%.
For CC(C)c1ccc(CN2CC[C@@H]3OCC(=O)N(C(C)C)[C@H]3CC2)cc1 the results were hNpr1 antagonist 8.91µM*.
`COc1ccc2[nH]c3c(c2c1)CCNC31CCN(C(=O)c2sccc2C)CC1` gave hNpr1 antagonist inconclusive.
For CN(C)Cc1cn2c(=O)n(C)cc(-c3ccc(O)c(F)c3)c2n1 the results were hNpr1 antagonist 4.9%[70.6 µM].
Screening CC(C)NC(=O)N1CCC2(CC1)CC(N(Cc1ccc(F)cc1)C1CC1)CCO2 (configuration not stated) returned hNpr1 antagonist -19.3%.
Screening COc1ccc(NC(=O)c2ccc(-c3nnc4ccc(NC(=O)C5CC5)cn34)cc2)cc1 returned hNpr1 antagonist -4.1%.
Cc1nn(-c2ccc(F)cc2)c(Oc2ccccc2)c1CCC(=O)NCC1CCCO1 (configuration not stated) was read as hNpr1 antagonist -19.4%.
`COc1ccc(C(=O)N2CCCC(n3cc(-c4nc(-c5ccccc5)no4)nn3)C2)cc1` (configuration not stated) gave hNpr1 antagonist inconclusive.
`CCn1cc(C(=O)N2CCC3(CC2)CN(C2CCC2)CC3CO)cn1` (configuration not stated) gave hNpr1 antagonist -14.0%.
For COc1ccccc1CC(=O)N1CCC(c2n[nH]c(=O)n2Cc2ccc(C)cc2)CC1 the results were hNpr1 antagonist -1.7%.
For Cn1ccnc1C(=O)N1CCCC1c1nncn1Cc1ccncc1 (configuration not stated) the results were hNpr1 antagonist 2.1%.
Screening COc1ccc(CNC(=O)c2ccc3c(c2)N(C(=O)c2ccc(F)cc2)CC3)c(OC)c1 returned hNpr1 antagonist -14.7%.
Cc1ccc(F)c(NC(=O)c2cc3c(N4CCSCC4)nc(C)cn3n2)c1 was read as hNpr1 antagonist -0.5%.
CCS(=O)(=O)N1CCC(N2C(=O)C(OCC3CC3)C23CCCCC3)CC1 (configuration not stated) was read as hNpr1 antagonist 2.7%.
`CC(C)C(=O)Nc1ccc(C2(C(=O)O)CCC2)cc1` gave hNpr1 antagonist -1.3%.
For COc1ccccc1C(=O)N1CCC(c2n[nH]c(=O)n2-c2ccc(C)cc2)CC1 the results were hNpr1 antagonist 2.8%.
`Cc1oc2ccn(Cc3ccccc3F)c(=O)c2c1C(=O)NCc1cc(F)cc(F)c1` gave hNpr1 antagonist -4.3%.
For O=C1NC2(CCN(C(=O)c3ccc4c(c3)OCO4)C2)OCc2ccccc21 (configuration not stated) the results were hNpr1 antagonist 0.0%.
COc1cc(CN2CCN(Cc3cnc(C)s3)CC2CCO)cc(OC)c1 (configuration not stated) was read as hNpr1 antagonist 6.1%.
Screening COc1ccccc1C(=O)N1CCc2c(c(-c3nncn3C(C)C)nn2C)C1 returned hNpr1 antagonist 9.3%.
CCOC(=O)c1csc(NC(=O)CC[C@H]2NC(=O)c3ccccc3NC2=O)n1 was read as hNpr1 antagonist 2.5%.
For CC(=O)N1CCN([C@H]2[C@@H]3OC[C@@H](O3)[C@@H](NCC3CCCCC3)[C@@H]2O)CC1 the results were hNpr1 antagonist 2.5%[70.6 µM].
O=C(c1ccco1)N1CCN(c2cc(-c3cccs3)[nH]n2)CC1 was read as hNpr1 antagonist -1.0%.
For CCCS(=O)(=O)N1CCC2(CC1)CN(C(C)=O)CC2COC (configuration not stated) the results were hNpr1 antagonist 0.9%.
`CN1c2cc(C(=O)Nc3ccc(Cl)c(F)c3)ccc2C(=O)N2CCCCCC21` (configuration not stated) gave hNpr1 antagonist -4.1%.

Pulled one by one from above:
For COc1ccccc1C(=O)N1CCC(c2n[nH]c(=O)n2-c2ccc(C)cc2)CC1 the results were hNpr1 antagonist 2.8%.
`Cc1oc2ccn(Cc3ccccc3F)c(=O)c2c1C(=O)NCc1cc(F)cc(F)c1` gave hNpr1 antagonist -4.3%.
O=C(c1ccco1)N1CCN(c2cc(-c3cccs3)[nH]n2)CC1 was read as hNpr1 antagonist -1.0%.
For O=C1NC2(CCN(C(=O)c3ccc4c(c3)OCO4)C2)OCc2ccccc21 (configuration not stated) the results were hNpr1 antagonist 0.0%.

Additional entries:
`Cn1cc(NC(=O)C2CC(=O)N(c3n[nH]c4cccc(F)c34)C2)cn1` (configuration not stated) gave hNpr1 antagonist 1.6%.
NC(=O)CN1CC2(CCC1=O)CCN(CC1CCCCO1)CC2 (configuration not stated) was read as hNpr1 antagonist -1.4%.
For CN(C)C(C(=O)NCc1nnc2n1CCCC2)c1cccc(F)c1 (configuration not stated) the results were hNpr1 antagonist 4.0%.
CN(Cc1cccnc1)c1nc2c(c(=O)[nH]1)CCN(Cc1ccc(F)c(Cl)c1)CC2 was read as hNpr1 antagonist -1.8%.
O=C(c1ccc2ccnn2c1)N1CCOCC1 was read as hNpr1 antagonist -1.0%[70.6 µM].
CN1CCCCCCN(Cc2ccccc2)[C@H]2CCC[C@H]2C1=O was read as hNpr1 antagonist -6.7%.
For Cc1ccsc1-c1[nH]nc2ncc(-c3cccc(O)c3)nc12 the results were hNpr1 antagonist -26.5%[70.6 µM].
Screening COc1c(F)cccc1CN1CCOc2cc([S+](=O)([O-])N(C)C)ccc2C1 returned hNpr1 antagonist inconclusive.
CCOC(=O)C1CCN(C(=O)C2COC3(CCCCC3)N2C(=O)c2ccc(CC)cc2)CC1 (configuration not stated) was read as hNpr1 antagonist 4.0%.
For c1ccc2oc(-c3nccn3CCc3noc(C4CCCO4)n3)cc2c1 (configuration not stated) the results were hNpr1 antagonist 1.5%.
For Cc1nnc([C@H]2CCN(CCCc3ccccc3)C2)o1 the results were hNpr1 antagonist 9.0%[70.6 µM].
For CN1CCN(c2nc3c(c(=O)[nH]2)CCN(Cc2cn[nH]c2-c2ccc(F)cc2)CC3)CC1 the results were hNpr1 antagonist -2.0%.
`O=C(c1ccc(Cl)nc1)N1CCC2(CC1)CCN(Cc1cccs1)c1ccccc1O2` gave hNpr1 antagonist inconclusive.
`O=C(NC1CCCc2c1[nH]c1ccc(Cl)cc21)c1ccncc1` (configuration not stated) gave hNpr1 antagonist inconclusive.
For Cn1ccnc1CN1C[C@H]2CN(C(=O)NCc3ccccc3)CCN2C1=O the results were hNpr1 antagonist 0.3%[70.6 µM].
O=C(c1ccc2c(c1)OCO2)N1CCC2(CC1)NC(=O)N(c1ccccc1)N2 was read as hNpr1 antagonist -0.6%.
Screening NC(=O)c1ccc(C(F)(F)F)nc1N1CCC(N2CCCC(O)C2)CC1 (configuration not stated) returned hNpr1 antagonist 1.7%.
Screening Cc1ccc(CN2CCCC(COc3ccccc3C(=O)N3CCOCC3)C2)cc1C (configuration not stated) returned hNpr1 antagonist -7.6%.
Screening Cc1ccc(N2CC(c3noc(-c4ccc(F)cc4)n3)CC2=O)cc1 (configuration not stated) returned hNpr1 antagonist 0.3%.
Screening COc1cccc(CN2CCC(C(=O)Nc3ccccc3-c3cccc(OC)c3)CC2)c1 returned hNpr1 antagonist inconclusive.
For CCOc1ccc(NC(=O)CCNc2c(C)nc3cnccn23)cc1 the results were hNpr1 antagonist -9.6%.
`Cc1ccc(-c2cc(CN3CC(=O)N4CCC[C@H]4C3=O)on2)cc1` gave hNpr1 antagonist -0.3%.
`Cc1ncc2c(n1)CCCN(CC(=O)N1CCCC1)C2=O` gave hNpr1 antagonist 1.7%.
For O=C(CCC[C@H]1NC[C@@H]2C[C@H]1CN(Cc1ccccc1)C2)N1CCN(Cc2ccccc2F)CC1 the results were hNpr1 antagonist -2.5%.
Screening COc1ccc(C(=O)N2CCOCCNC(=O)CC2)c(OC)n1 returned hNpr1 antagonist 4.0%.
`COCCNC(=O)Cn1nc2c(cc1=O)CCCCC2` gave hNpr1 antagonist 10.7%.
`CCOc1ccc2c(n1)CCN(C(=O)Nc1ccc(OC)cc1C)C2` gave hNpr1 antagonist -1.1%.
`OCC1CN(c2ncccn2)CC12CCN(Cc1ccsc1)CC2` (configuration not stated) gave hNpr1 antagonist 1.5%.
Screening O=C(Cn1c(=O)oc2ccccc21)N1C[C@@H](CO)[C@H](c2ccccn2)C1 returned hNpr1 antagonist -1.6%.
COc1ncccc1-c1nccc2c(=O)cc(N(C)C)oc12 was read as hNpr1 antagonist 10.8%[70.6 µM].

A portion of the library (hit frequency here may not be typical).
